BJeLR viab HTS – BJeLR cell viability loss, primary screen, luminescence, CellTiterGlo ATP. BJeLR fibroblasts viability, 48 h; HRASV12, hTERT and SV40 LT/ST transformed. viability loss activity score, % (concentration not given with the values). actives 0.64% (n = 30,000). AID 2275, 2010; in the data active = viability loss activity score above about 50%; about a fifth of its hits are not listed in these tables;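 note: higher score means fewer live cells and less ATP luminescence; stock transfer was 50 or 100 nL into about 30 µL; 0% = vehicle wells and 100% = a reference killing control; one replicate is shown; the record names a cut of 85%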
A1 inh – inducers of caspase activity in MEF A1-2A-BIM cells, primary screen, A1 inhibitor project, cell-based, CaspaseGlo luminescence | caspase-Glo luminescence, 3 h; percent of clofoctol signal, DMSO as zero | caspase activation, % (test concentration not listed) | actives 0.51% (n = 21,000) | AID 2241, 2010;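 active = most replicate scores above 10, or exactly half above 10 with mean activity above 10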;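 note: effector caspase 3 and 7 activity cleaving a DEVD luciferin substrate; 50 nL library stock added to about 30 µL; numbers are from one replicate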
Active calls of the source: *; nt = no result given.

Sequence of screens: BJeLR viab HTS, A1 inh
Cc1noc(C)c1NC(=O)Nc1cccc2c1O[C@@H](CN(C)C(=O)Nc1c(C)noc1C)[C@H](C)CN([C@H](C)CO)C2=O
→ 4.2, nt
C[C@H](CO)N1C[C@H](C)[C@@H](CN(C)C)Oc2c(NC(=O)C3CCOCC3)cccc2C1=O
→ -2.6, nt
Cc1nc2ccccc2c(=O)n1NC(=O)/C=C/c1ccccc1
→ -3.8, -0.5
Cc1ccc(S(=O)(=O)N(C)C[C@@H]2Oc3c(NC(=O)Nc4ccccc4)cccc3C(=O)N([C@H](C)CO)C[C@@H]2C)cc1
→ -1.1, nt
O=C1NC(=O)C(c2ccccc2[N+](=O)[O-])=C1Nc1ccc(O)c(Cl)c1
→ -4.5, 1.6
C[C@@H]1CN([C@H](C)CO)C(=O)c2cc(NC(=O)NC3CCCCC3)ccc2O[C@@H]1CN(C)Cc1ccc(-c2ccccc2)cc1
→ -1.5, 1.0
C[C@@H]1CN([C@H](C)CO)C(=O)c2cccc(NC(=O)Nc3cccc4ccccc34)c2O[C@H]1CN(C)C(=O)Nc1ccc(C(F)(F)F)cc1
→ 2.7, nt
C=C1C(=O)O[C@@H]2/C=C(\C)[C@@H](OC(=O)C(O)C(C)C)C/C=C(/C)C[C@@H](OC(=O)/C(=C/CO)CO)[C@@H]12 (some centres undefined)
→ -2.8, 0.6
Cc1ccc(S(=O)(=O)N(C)C[C@H]2Oc3c(NS(=O)(=O)c4cccs4)cccc3C(=O)N([C@@H](C)CO)C[C@H]2C)cc1
→ 2.7, nt
CCC(=O)N1CCc2cc(S(=O)(=O)N(CC)CC)ccc21
→ 0.2, nt
COc1ccc2cc3cc(C(=O)NCCN(C)C)oc3nc2c1
→ -1.3, nt
CNS(=O)(=O)c1cccs1
→ 6.6, nt
CC1CCCCN1CCNC(=O)CCc1nnc2n(Cc3ccc(F)cc3)c(=O)c3ccccc3n12 (centres undefined)
→ -2.5, -0.1
CNC[C@H]1Oc2ccc(NC(=O)CCC(F)(F)F)cc2C(=O)N([C@H](C)CO)C[C@H]1C
→ 2.6, -0.3
C[C@@H]1CN([C@H](C)CO)C(=O)c2cccc(NC(=O)Nc3ccc(C(F)(F)F)cc3)c2O[C@H]1CN(C)Cc1ccccc1
→ 1.3, nt

Random excerpt: 6 records from the list
Sequence of screens: BJeLR viab HTS, A1 inh
C[C@H](CO)N1C[C@H](C)[C@@H](CN(C)C)Oc2c(NC(=O)C3CCOCC3)cccc2C1=O
→ -2.6, nt
COc1ccc2cc3cc(C(=O)NCCN(C)C)oc3nc2c1
→ -1.3, nt
Cc1ccc(S(=O)(=O)N(C)C[C@H]2Oc3c(NS(=O)(=O)c4cccs4)cccc3C(=O)N([C@@H](C)CO)C[C@H]2C)cc1
→ 2.7, nt
C=C1C(=O)O[C@@H]2/C=C(\C)[C@@H](OC(=O)C(O)C(C)C)C/C=C(/C)C[C@@H](OC(=O)/C(=C/CO)CO)[C@@H]12 (some centres undefined)
→ -2.8, 0.6
C[C@@H]1CN([C@H](C)CO)C(=O)c2cc(NC(=O)NC3CCCCC3)ccc2O[C@@H]1CN(C)Cc1ccc(-c2ccccc2)cc1
→ -1.5, 1.0
O=C1NC(=O)C(c2ccccc2[N+](=O)[O-])=C1Nc1ccc(O)c(Cl)c1
→ -4.5, 1.6

Structures from the list above with sulfur, in the order listed:
Sequence of screens: BJeLR viab HTS, A1 inh
Cc1ccc(S(=O)(=O)N(C)C[C@@H]2Oc3c(NC(=O)Nc4ccccc4)cccc3C(=O)N([C@H](C)CO)C[C@@H]2C)cc1
→ -1.1, nt
Cc1ccc(S(=O)(=O)N(C)C[C@H]2Oc3c(NS(=O)(=O)c4cccs4)cccc3C(=O)N([C@@H](C)CO)C[C@H]2C)cc1
→ 2.7, nt
CCC(=O)N1CCc2cc(S(=O)(=O)N(CC)CC)ccc21
→ 0.2, nt
CNS(=O)(=O)c1cccs1
→ 6.6, nt

Following part:
Sequence of screens: BJeLR viab HTS, A1 inh
COc1ccccc1C(=O)NCCOc1ccc(C)c(C)c1
→ -2.4, nt
CC1Cc2ccccc2N1C(=O)Nc1ccc(Cl)c(Cl)c1 (centres undefined)
→ 1.2, -1.6
Cc1ccc(OCC(=O)NC2CC(C)(C)NC(C)(C)C2)c(C)c1
→ -3.7, 0.7
Cc1ccc2nc(N3CCN(c4cccc(C)c4C)CC3)c(-n3nc(C)cc3C)nc2c1
→ 0.4, nt
COc1ccc(CSc2nnc(CSc3cccs3)n2C)cc1
→ 1.6, 0.6
CCN(CC)C(=O)c1cccc(Cl)c1
→ 0.3, -0.1
C[C@@H]1CN([C@@H](C)CO)C(=O)c2cc(NC(=O)CCN3CCOCC3)ccc2O[C@H]1CN(C)C(=O)NC1CCCCC1
→ 1.6, 0.0
C[C@@H]1CN([C@@H](C)CO)C(=O)c2cc(N(C)C)ccc2O[C@H]1CN(C)C(=O)Nc1ccc(F)cc1
→ 0.1, 0.9
COc1ccccc1CC(=O)NCc1nn(-c2ccccc2)nc1C
→ 0.8, 0.1
CCOC(=O)N1CCC(NC(=O)c2ccc(CS(=O)(=O)c3ccc(OC)cc3)o2)CC1
→ 1.6, nt
CC(C)(C)C1CCc2c(sc3nc(-c4cccs4)oc(=O)c23)C1 (centres undefined)
→ 6.9, 1.0
CC(C)NC(=O)Nc1ccc2c(c1)C(=O)N([C@@H](C)CO)C[C@@H](C)[C@@H](CN(C)S(=O)(=O)c1ccc(F)cc1)O2
→ -1.2, 0.2
C[C@@H]1CN([C@H](C)CO)C(=O)c2cccc(NS(=O)(=O)c3cn(C)cn3)c2O[C@@H]1CN(C)Cc1ccncc1
→ 2.4, nt
C[C@@H]1CN([C@H](C)CO)C(=O)c2cccc(NS(=O)(=O)c3ccccc3)c2O[C@H]1CN(C)S(=O)(=O)c1cn(C)cn1
→ 2.4, nt
Cc1cccc(OCC(=O)Nc2ccc3nc(N4CCCCC4)cc(C)c3c2)c1
→ 0.5, nt
C[C@@H]1CN([C@@H](C)CO)C(=O)c2cccc(NS(C)(=O)=O)c2O[C@H]1CN(C)C(=O)Nc1ccc(C(F)(F)F)cc1
→ -3.0, nt
O=C1CCCC(Cn2cncn2)C1 (centres undefined)
→ 4.6, 1.0
Cc1ccc(/C=C2/C(=O)N=C(N)N2C)s1
→ -0.8, -0.3
CC(C)(C)c1nc2c(o1)NC(N)=C(C(N)=O)C2c1ccc(OCC#N)cc1 (centres undefined)
→ 4.9, 1.3
CNC[C@H]1Oc2c(NC(=O)c3ccc(-c4nccs4)cc3)cccc2C(=O)N([C@@H](C)CO)C[C@@H]1C
→ 3.7, nt
COc1cc2c(cc1-c1coc3c4c(ccc3c1=O)OC(C)(C)C=C4)OCO2
→ -2.7, -0.2
C[C@@H]1CN([C@@H](C)CO)C(=O)c2cc(NS(=O)(=O)c3ccc(Cl)cc3)ccc2O[C@H]1CN(C)Cc1ccc2c(c1)OCO2
→ 0.4, 0.2
CCNS(=O)(=O)c1cccc2c(N)cccc12
→ -1.7, -0.1
COc1cc(OC)c2c(=O)c(-c3ccc4c(c3)OCO4)coc2c1
→ 5.6, 0.6
C[C@@H]1CN([C@H](C)CO)C(=O)c2cccc(NS(=O)(=O)c3ccc(Cl)cc3)c2O[C@@H]1CN(C)S(=O)(=O)c1cccs1
→ -0.2, nt
Cc1noc(C)c1NC(=O)Nc1ccc2c(c1)C(=O)N([C@H](C)CO)C[C@H](C)[C@H](CN(C)CC1CC1)O2
→ -0.4, -0.5
C[C@@H]1CN([C@@H](C)CO)C(=O)c2cc(NS(=O)(=O)c3cccs3)ccc2O[C@H]1CN(C)CC1CCCCC1
→ -3.6, -0.5
C[C@@H]1CN([C@@H](C)CO)C(=O)c2cccc(NC(=O)c3ccc(-c4nccs4)cc3)c2O[C@H]1CN(C)CC1CCCCC1
→ -2.0, nt
C[C@@H]1CN([C@H](C)CO)C(=O)c2cccc(NC(=O)Nc3ccc(C(F)(F)F)cc3)c2O[C@@H]1CN(C)Cc1ccc2c(c1)OCO2
→ -4.5, nt
C[C@H]1CN([C@@H](C)CO)C(=O)c2cc(NC(=O)CCN3CCOCC3)ccc2O[C@@H]1CN(C)Cc1ccc(C(=O)O)cc1
→ 0.2, -0.2

Sorted by the number under A1 inh (high to low): three of the compounds above.
| SMILES | A1 inh |
| --- | --- |
| COc1cc2c(cc1-c1coc3c4c(ccc3c1=O)OC(C)(C)C=C4)OCO2 | -0.2 |
| Cc1ccc(/C=C2/C(=O)N=C(N)N2C)s1 | -0.3 |
| C[C@@H]1CN([C@@H](C)CO)C(=O)c2cc(NS(=O)(=O)c3cccs3)ccc2O[C@H]1CN(C)CC1CCCCC1 | -0.5 |

The list goes on:
SMILES | BJeLR viab HTS | A1 inh
C[C@@H]1CN([C@@H](C)CO)C(=O)c2cccc(NS(=O)(=O)c3ccccc3)c2O[C@@H]1CN(C)C(=O)Nc1ccc2c(c1)OCO2 | 0.7 | nt
NC(N)=Nc1nc(=O)c2ccccc2s1 | -3.3 | 0.3
O=C(ON1C(=O)c2ccccc2C1=O)c1ccco1 | -4.3 | 1.7
CCNc1nc(NCC)nc(Oc2ccc(=O)[nH]n2)n1 | -1.3 | -0.2
Cc1noc(C)c1NC(=O)N(C)C[C@H]1Oc2c(NS(=O)(=O)c3ccc(F)cc3)cccc2C(=O)N([C@@H](C)CO)C[C@H]1C | 4.8 | nt
CC(C)N1CCN(c2ccc(OC[C@H]3CO[C@](Cn4cncn4)(c4ccc(Cl)cc4Cl)O3)cc2)CC1 | 3.0 | 0.3
O=C(CCCn1sc2ccccc2c1=O)N1CCCC1 | -4.2 | 1.4
CCCCn1c2nc3ccccc3nc2c2c(N)ncnc21 | -1.6 | -0.2
C[C@@H]1CN([C@H](C)CO)C(=O)c2cc(NC(=O)NC3CCCCC3)ccc2O[C@@H]1CN(C)C(=O)NC1CCCCC1 | 1.9 | 0.3
C[C@@H]1CN([C@H](C)CO)C(=O)c2cc(NC(=O)Nc3cccc4ccccc34)ccc2O[C@@H]1CN(C)Cc1ccc(Cl)c(Cl)c1 | -11.4 | -0.8
C[C@H](CO)N1C[C@H](C)[C@@H](CN(C)S(=O)(=O)c2ccccc2)Oc2c(NC(=O)Nc3cccc4ccccc34)cccc2C1=O | -4.2 | nt
Cc1ccccc1NC(=O)c1cnn2c(C(F)(F)F)cc(-c3ccco3)nc12 | 3.7 | nt
COc1ccc(C(=O)N(c2ccc(OC)cc2)S(=O)(=O)c2ccc(C)cc2)cc1 | 9.4 | 0.0
Cc1ccc(NC(=O)CC(NCC2CCCO2)C(=O)O)cc1 (centres undefined) | 1.7 | 1.2
Cc1noc(C)c1NC(=O)N(C)C[C@@H]1Oc2c(NC(=O)c3cnccn3)cccc2C(=O)N([C@@H](C)CO)C[C@H]1C | -0.3 | nt
CCCNC(=O)Cc1c(C)nc2cc(-c3ccccc3)nn2c1C | -1.5 | 0.6
O=C(Oc1c(Br)cc(Br)c2cccnc12)N1CCOCC1 | 4.4 | 0.5
CCCN(C(=O)c1cc2cc3ccc(OC)cc3nc2s1)c1ccc(CC)cc1 | -1.3 | nt
C[C@H](CO)N1C[C@H](C)[C@@H](CN(C)C(=O)Nc2ccccc2)Oc2c(NC(=O)Nc3ccc4c(c3)OCO4)cccc2C1=O | -6.2 | nt
COc1ccc(S(=O)(=O)Nc2ccc3c(c2)C(=O)N([C@@H](C)CO)C[C@H](C)[C@@H](CN(C)S(=O)(=O)c2cn(C)cn2)O3)cc1 | 3.9 | 0.6
COc1ccc(Br)cc1C1SCCN1S(=O)(=O)c1ccc(Cl)c(Cl)c1 (centres undefined) | -1.0 | 0.0
C[C@H]1CN([C@@H](C)CO)C(=O)c2cc(NC(=O)c3ccncc3)ccc2O[C@@H]1CN(C)S(=O)(=O)c1cccs1 | -0.9 | 0.2
C[C@@H]1CN([C@H](C)CO)C(=O)c2cccc(N(C)C)c2O[C@H]1CN(C)CC1CC1 | 0.7 | nt
C[C@H]1CN([C@@H](C)CO)C(=O)c2cccc(NC(=O)NC3CCCCC3)c2O[C@@H]1CN(C)Cc1ccc(-c2ccccc2)cc1 | 17.4 | nt

In another format: entries from further up
smiles: C[C@H](CO)N1C[C@H](C)[C@@H](CN(C)C(=O)Nc2ccccc2)Oc2c(NC(=O)Nc3ccc4c(c3)OCO4)cccc2C1=O
- BJeLR viab HTS: -6.2
- A1 inh: nt

smiles: COc1ccc(S(=O)(=O)Nc2ccc3c(c2)C(=O)N([C@@H](C)CO)C[C@H](C)[C@@H](CN(C)S(=O)(=O)c2cn(C)cn2)O3)cc1
- BJeLR viab HTS: 3.9
- A1 inh: 0.6

smiles: COc1ccc(Br)cc1C1SCCN1S(=O)(=O)c1ccc(Cl)c(Cl)c1 (centres undefined)
- BJeLR viab HTS: -1.0
- A1 inh: 0.0

More records:
SMILES | BJeLR viab HTS | A1 inh
C=CCN1C(=O)NC(=O)/C(=C\c2cn(Cc3ccccc3)c3ccccc23)C1=O | 2.2 | 0.8
C=CCSc1nnc(-c2ccc(C(F)(F)F)cn2)s1 | -4.1 | -0.9
CNC[C@H]1Oc2c(NC(=O)C3CC3)cccc2C(=O)N([C@@H](C)CO)C[C@H]1C | 2.0 | nt
C[C@H](CO)N1C[C@H](C)[C@H](CN(C)C(=O)Nc2ccc(C(F)(F)F)cc2)Oc2c(NC(=O)c3ccncc3)cccc2C1=O | -6.5 | nt
C/C(=N\N1CCN(C2c3ccccc3-c3ccccc32)CC1)c1cccnc1 | -2.4 | -0.4
COc1ccc(S(=O)(=O)N(C)C[C@H]2Oc3ccc(NC(=O)C4CC4)cc3C(=O)N([C@H](C)CO)C[C@@H]2C)cc1 | -0.2 | 0.7
COc1ccc(S(=O)(=O)N(C)C[C@H]2Oc3ccc(NS(=O)(=O)c4c(C)noc4C)cc3C(=O)N([C@@H](C)CO)C[C@H]2C)cc1 | 3.4 | 0.7
O=C(NC1CC1)c1n[nH]c(=O)c2ccccc12 | 3.8 | -0.1

These rows are one share of the data; rates above refer to the full screens.
